Tgondii IFNg – T. gondii growth inhibition with IFN-gamma, primary screen, cell-based | 69,000 tested, 3.8% active | activity change, negative = inhibition, %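 (about 20 µM by stock and volumes)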 | AID 1259416, 2018 | Toxoplasma gondii growth in IFN-gamma-treated host cells; active compounds read low; reference of the scale not given here;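 active = below -70%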;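 also: host cells are HeLa cells infected with Toxoplasma gondii; parasite growth read as luciferase light; one replicate is shown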
* = called active by the depositor; i = inactive. The list is partial; rates above refer to the full screens.

SMILES	Tgondii IFNg
OC[C@H]1[C@H](c2ccc(-c3cccc(F)c3)cc2)[C@@H]2CN(Cc3cncnc3)CCCCN12	-14.0
c1cncc(COC2CCN(Cc3ccsc3)CC2)c1	12.0
COC(=O)c1cccc(CN2C(=O)CSC2=O)c1	-31.0
CCOc1ccccc1-c1nc(CSc2nc3c(c(=O)[nH]2)CN(Cc2ccccc2)CC3)c(C)o1	2.0
CN1CCN(C(=O)C[C@@H]2CC[C@H]3[C@@H](COC[C@H](O)CN3C(=O)Nc3ccc4c(c3)OCO4)O2)CC1	-12.5
C=CCOC1C2CCC1N(C(=O)c1cn(C)c3ccccc13)CCO2 (stereo not drawn)	-1.0
CC(C)Nc1nc2c(c(NC3CC3)n1)CCN(Cc1cnn(C)c1)CC2	40.1
COc1ccc2c(C)c(C(=O)NCC3(O)CCCNCC3)oc2c1 (stereo not drawn)	-0.9
CC(C)(C)C(=O)CSc1nc2[nH]c(=O)[nH]c(=O)c2s1	9.7
COc1ccc(C(=O)/C=C/c2ccccc2)cc1	68.5
Cc1ccc2ccc(S(=O)(=O)c3ccc4ccc(C)cc4c3)cc2c1	-68.6
Cc1cc(C(=O)N(C)C(C)Cc2ccccn2)c2ccc(F)cc2n1 (stereo not drawn)	-3.9
CC1CCN(c2nc(-c3ccc(Cl)cc3)nc3ccccc23)CC1	9.2
CCc1ccc(NC(=O)CCc2ccc(C)o2)cc1	23.6
Cc1ccc2[nH]cc(CCN3CC(C(=O)Nc4ccc(C)c(C)c4)CC3=O)c2c1 (stereo not drawn)	-27.9
O=C(NCCN1CCN(c2ncccn2)CC1)C1CCOC1 (stereo not drawn)	2.3
COc1cccc(CNC(=O)N2CCC3(CC2)Nc2cc(C)ccc2-n2cccc23)c1	77.6
Cc1c(C(=O)N2CCC3(CCNC(=O)CC3)CC2)cnc2cc(=O)[nH]n12	7.6
Cc1ccc(NCCCNC(=O)c2ccc(=O)n(C)c2)nc1	0.0
Cc1cccc(CN2CCOCC3(CCN(Cc4ccco4)C3)C2)n1 (stereo not drawn)	1.7
c1cnc(Oc2ccc(C3NCCc4[nH]cnc43)cc2)nc1 (stereo not drawn)	-50.2
COCCN1CCN(C)C2(CCN(C(=O)C3CCCO3)CC2)C1=O (stereo not drawn)	0.6
COc1ccc(C2CCCN2C(=O)CNS(=O)(=O)c2c(C)noc2C)cc1 (stereo not drawn)	4.1
CCS(=O)(=O)N1CC2(C1)[C@H](c1ccccc1)[C@H](CO)N2C(=O)c1ccccc1	-24.7
CC(C)(O)C#Cc1cccc(C(=O)NCc2ccccc2-n2ccnc2)c1	-48.9

The final 4 compounds of the part before are carried over, then new ones follow.
SMILES	Tgondii IFNg
COCCN1CCN(C)C2(CCN(C(=O)C3CCCO3)CC2)C1=O (stereo not drawn)	0.6
COc1ccc(C2CCCN2C(=O)CNS(=O)(=O)c2c(C)noc2C)cc1 (stereo not drawn)	4.1
CCS(=O)(=O)N1CC2(C1)[C@H](c1ccccc1)[C@H](CO)N2C(=O)c1ccccc1	-24.7
CC(C)(O)C#Cc1cccc(C(=O)NCc2ccccc2-n2ccnc2)c1	-48.9
CC(=O)Nc1ccc(N2C(=O)CC(N3CC(C)CC(C)C3)C2=O)cc1 (stereo not drawn)	10.3
COc1ccccc1-c1cccc(-c2nc(C(=O)NCc3ccncc3)cc3c2[C@@H](CCO)N([S@](=O)C(C)(C)C)C3)c1	2.8
Cc1[nH]c2c(c1C(=O)N1CCCC(O)(CO)CC1)C(=O)CCC2 (stereo not drawn)	-1.6
CS(=O)(=O)N1CCC2(CC1)COC(COc1ccccn1)C2 (stereo not drawn)	3.6
CN(Cc1cc(C(C)(C)C)n[nH]1)C(=O)c1cccc(-n2cnnc2)c1	-3.0
N#CC(c1ccccc1)N(CCO)CCO (stereo not drawn)	4.8
Cc1ccc(-c2cn3nc(-c4ccccn4)c(-c4ccccn4)nc3n2)cc1C	71.6
C=CCN(Cc1ccc(C)s1)C(=O)c1ccc(-c2nnn(C)n2)cc1	-2.7
CCN1c2ccc(F)cc2C(=O)NC12CCN(C(=O)c1ccccc1OC)CC2	114.9
O=C1c2cccc3cccc(c23)C(=O)N1c1ccc(O)cc1	-10.6
NS(=O)(=O)c1ccc(NS(=O)(=O)c2ccc(Br)cc2)cc1	6.8
Cc1nc(C(=O)N2CC[C@@H](c3ccc4ccccc4c3)[C@H](O)C2)c(C)o1	3.0
Cc1nc(C)n(CCNC(=O)c2cn(-c3ccccc3)nn2)n1	6.8
O=C(Nc1ccc(Oc2c(F)c(F)c(F)c(F)c2F)cc1)OC1CCN2Cc3ccccc3N=C12 (stereo not drawn)	-98.8*
O=C(O)CC(CC(=O)Nc1ccc(Oc2ccc(Cl)cc2)cc1)c1ccccc1 (stereo not drawn)	-15.7
CCCNC(=O)Nc1ccc2c(c1)C(=O)N(C)[C@H]1CC[C@H](CC(=O)Nc3cc(F)ccc3F)O[C@@H]1CO2	-14.2
CCc1nnc(CN2CCCC2c2ccc(F)cc2)o1 (stereo not drawn)	18.3
COc1cccc(-c2ccc3nc(C4CCN(CC5CC5)CC4)nn3c2)c1	-9.3
O=C(CN1C(=O)CCc2cc(Br)ccc21)NCCN1CCc2ccccc2C1	51.1
COCCN(C)C(=O)c1ccc2nnc(C3CN(CC4CC4)CCN3C(C)C)n2c1 (stereo not drawn)	-27.7
CCCCN(Cc1nc2ccccc2[nH]1)Cc1ccco1	6.7
CNS(=O)(=O)c1ccc(C)cc1	6.4
O=C(c1ccccn1)N1CC[C@H]2OCC[C@@]2(COc2ccccn2)C1	-1.1
CCN(S(=O)(=O)c1ccc(F)cc1)S(=O)(=O)c1c(C)c(C)c(C)c(C)c1C	12.1
Cc1[nH]cnc1CN(C)Cc1cnn(-c2ccc(F)cc2)c1	-43.9

(further entries)
SMILES	Tgondii IFNg
CCn1c(C2CCCN(C(=O)c3cccc4[nH]c(C)nc34)C2)nn(C)c1=O (stereo not drawn)	9.9
O=C(CSCC(=O)NCc1ccco1)NCc1ccco1	10.6
CCOC(=O)CC(NC(=O)N1CCC2(CC1)Nc1ccccc1-n1cccc12)c1ccccc1 (stereo not drawn)	136.0
O=C1C(Cc2c[nH]c3ccccc23)N=C2c3ccccc3N=C(SCc3cc(=O)n4cc(Br)ccc4n3)N12 (stereo not drawn)	6.3
COCCN1CCC2(C1)c1ccccc1S(=O)(=O)N2CCOC (stereo not drawn)	-44.0
CCN(C(=O)c1cccc(F)c1F)[C@@H]1CCN(c2ccnc(N)n2)C[C@H]1O	7.6
C=CCn1c(=O)c(C(=O)NCc2ccc(OC)cc2)c(O)c2ccccc21	-31.6
O=C(c1cc2c(s1)CCC2)N1CCC(C2Nc3ccccc3S(=O)(=O)N2)CC1 (stereo not drawn)	116.4
COc1ccc(CN(Cc2cnc(N(C)C)nc2)C2CC(C)(C)NC(C)(C)C2)cc1	35.1
O=C(c1ccccc1F)N1CCCc2cc(C(O)CN3CCCCC3)ccc21 (stereo not drawn)	-8.6
Cc1ncsc1CCC(=O)N1CCC(O)(c2ccc(F)cc2)CC1	2.4
COc1ccc(-c2c(C)nn3c(C4CCN(Cc5ccccc5)C4)ccnc23)cc1OC (stereo not drawn)	-10.5
Cc1ccc(-c2nc(Cn3nnc(C(=O)NCc4ccc(F)cc4)c3C)c(C)o2)cc1	109.8
Cc1c(Cl)cccc1NC(=O)C(=O)NCCc1csc(-c2cccc(F)c2)n1	-19.4
CC1c2ncc(CNC(=O)C3CC3)n2CCN1Cc1ccccn1 (stereo not drawn)	11.3
CC1CCN(c2ncnc3c2cnn3CC(=O)Nc2ccccc2C(F)(F)F)CC1	-81.1*
COc1ccc(-c2nc(Cn3nnc(-c4nc(-c5cccc(C(F)(F)F)c5)no4)c3C)c(C)o2)cc1	1.1
CCN(CC)Cc1cc(Nc2ccnc3cc(Cl)ccc23)ccc1O	4.0
O=S(=O)(c1ccc(Cl)cc1)N1CCC2(CC1)Nc1cc(F)ccc1-n1cccc12	20.5
CC(C)c1cc(C(=O)N2CCOC(CCCc3ccccc3)C2)nc2ncnn12 (stereo not drawn)	-1.5
CC(C)CN1CC[C@H]2[C@@H]1CCN2S(=O)(=O)Cc1ccccc1	3.5
COc1cc(C)c(C)cc1S(=O)(=O)NCCc1nc(C)ncc1C(=O)N1CCOCC1	4.2
COc1ccc(S(=O)(=O)N2CCc3nc(-c4ccc(C)cc4)sc3C2)cc1	-44.5
CN(C)C(=O)c1ccc(-c2ccc([C@H]3[C@H]4CN(C(=O)CC5CC5)CC(=O)N4[C@H]3CO)cc2)cc1	-19.3
CCC(CO)NC(=O)c1ccc2ccc(N(C)c3ccc(F)cc3)n2c1 (stereo not drawn)	3.8

Next part:
SMILES	Tgondii IFNg
CN1C(=O)N(C)C2C1NC(=O)N2CC(=O)Nc1ccc(N2CCCCC2)c(F)c1 (stereo not drawn)	65.5
CCN(Cc1ccc(C(=O)Nc2ccccc2C)cc1)Cc1noc(C)n1	-4.5
CCOC(=O)CSc1nnc(CNc2ccc(F)cc2)n1-c1ccccc1	-4.5
Cc1ccc(CN2CCOCC3(CCC(Cn4cccn4)O3)C2)s1 (stereo not drawn)	58.7
Cc1nc(C2COCCN2C(=O)COc2ccccc2C)cs1 (stereo not drawn)	6.2
CSc1ccc(C(=O)N[C@@H]2c3ccccc3[C@H]3CN(C(C)=O)C[C@H]32)s1	-41.1
CCCCC(=O)Nc1cc(C(=O)O)ccc1N1CCC(C(N)=O)(N2CCCCC2)CC1	28.6
O=C(NC12CC3CC(CC(C3)C1)C2)c1cccnc1	6.0
O=S(=O)(c1ccc(C2CCCCC2)cc1)N1CCC2(CC1)Nc1cc(F)ccc1-n1cccc12	-14.0
Cc1ccccc1C1(O)CCN(Cc2cnc(-c3ccccn3)nc2)C1 (stereo not drawn)	-0.8
O=C(NCCSCc1ccco1)c1ccc(Cl)cc1Cl	10.3
COc1cccc(CNC2CCc3c(c(C(=O)N4CCCCCC4)nn3C)C2)c1 (stereo not drawn)	14.8
O=C(NC1CCCC1)C(c1ccccc1F)N(C(=O)c1csnn1)C1CCCC1 (stereo not drawn)	8.5
COCC(=O)Nc1ccc2c(c1)C(=O)N(C)[C@H]1CC[C@@H](CC(=O)N3CCc4ccccc4C3)O[C@@H]1CO2	22.9
CCOC(=O)c1sc2sc(-c3ccn[nH]3)c(C)c2c1C	-109.6*
Cc1cccnc1CC(C)NC(=O)c1ccc(Cn2cnnn2)cc1 (stereo not drawn)	-18.3
CCc1nn(C)c(Cl)c1CN1CCC(C(=O)N2CCOCC2)CC1	-41.0
C/C(=C\c1ccco1)CN(Cc1nccn1C)C1CC1	-4.3
CCN1C(=O)CCc2cc(NC(=O)c3ccc(OC)cc3C)ccc21	104.4
O=C(C[C@@H]1CC[C@H]2[C@@H](COC[C@H](O)CN2C(=O)Nc2cc(Cl)cc(Cl)c2)O1)N1CCOCC1	3.0
COC(=O)C1(Cc2ccccc2-c2ccc(F)c(F)c2)CCOCC1	-16.7
CN(Cc1cnc(C2CCCCC2)nc1)Cc1ncc[nH]1	-2.0
O=C(C[C@@H]1CC[C@@H](NC(=O)C2CC2)[C@@H](CO)O1)Nc1ccccc1	-39.0
COc1cccc(-n2c(=O)c(C(=O)Nc3ccc(F)cc3C)c(O)c3cccnc32)c1	44.0
CC1CC(OC(=O)C(O)c2ccccc2)CC(C)(C)C1 (stereo not drawn)	-32.5

Molecules from the list above containing a Cl atom:
SMILES	Tgondii IFNg
CC1CCN(c2nc(-c3ccc(Cl)cc3)nc3ccccc23)CC1	9.2
O=C(O)CC(CC(=O)Nc1ccc(Oc2ccc(Cl)cc2)cc1)c1ccccc1 (stereo not drawn)	-15.7
Cc1c(Cl)cccc1NC(=O)C(=O)NCCc1csc(-c2cccc(F)c2)n1	-19.4
CCN(CC)Cc1cc(Nc2ccnc3cc(Cl)ccc23)ccc1O	4.0
O=S(=O)(c1ccc(Cl)cc1)N1CCC2(CC1)Nc1cc(F)ccc1-n1cccc12	20.5
O=C(NCCSCc1ccco1)c1ccc(Cl)cc1Cl	10.3
CCc1nn(C)c(Cl)c1CN1CCC(C(=O)N2CCOCC2)CC1	-41.0
O=C(C[C@@H]1CC[C@H]2[C@@H](COC[C@H](O)CN2C(=O)Nc2cc(Cl)cc(Cl)c2)O1)N1CCOCC1	3.0

Next part
SMILES	Tgondii IFNg
COc1ccc(C)cc1NC(=O)Nc1ccc(-c2nc(-c3cc(C)ccc3C)co2)cc1	-72.0*
Cc1ccc(C(=O)N2CC[C@H]3O[C@@H](C(=O)NCc4ccco4)CC[C@@H]32)o1	-1.1
Cc1ccc(C)c(-n2cc(CNCC3CCCO3)c(-c3ccccc3)n2)c1 (stereo not drawn)	9.4
Cc1cc(C)n(CC(C)NCc2c(C)noc2C)n1 (stereo not drawn)	-0.9
CCn1c(=N)n(CC(=O)O)c2ccccc21	-0.6
Cc1noc(C)c1CN(C)Cc1cnc2c(-c3ccccc3)cnn2c1	25.0
O=C(CO)N1CCC2(CC1)COCCN(c1cccnc1)C2	0.4
COc1ccc(-c2nc(-c3cccs3)no2)cc1OC	i
CSc1n[nH]c(N)c1S(=O)(=O)c1ccc(Cl)cc1	37.3
CCn1c(CCc2nc3ccccc3[nH]2)n[nH]c1=O	3.6
CC1(C)c2ccccc2N2CC(=O)N(CC(N)=O)C21C (stereo not drawn)	3.5
Nc1nc(C(=O)O)c(-c2ccc(Cl)cc2)s1	19.9
COC(=O)c1ccccc1NC(=O)C(F)(F)F	10.2
CN(CC(=O)N1CCC(C(N)=O)CC1)S(=O)(=O)c1ccc(F)cc1	-20.7
Cc1nnc(CN2CCCCC2c2nc3ccc(F)cc3[nH]2)s1 (stereo not drawn)	20.8
Cc1cccc(NC(=O)Cn2c(=O)cc(C(=O)N3CCOCC3)c3ccccc32)c1	5.9
CC=Cc1ccc2n(c1=O)C[C@H]1[C@H](CO)[C@@H](C(=O)NCc3ccc4c(c3)OCO4)[C@@H]2N1C(=O)COC (mixture of isomers)	0.7
O=C(Nc1nc(-c2ccc(Br)cc2)cs1)c1c(O)c2ccccc2[nH]c1=O	8.7
CC(Cc1cnccn1)Nc1ccc(-c2nc(-c3cccc(Cl)c3)no2)cn1 (stereo not drawn)	49.9
Cc1cccc(S(=O)(=O)N2C[C@@H](O)COC[C@@H]3O[C@@H](CC(=O)Nc4ccccc4)CC[C@H]32)c1	-42.0
CCCc1nc(N2CC[C@@H](c3ccc4ccccc4c3)[C@H](O)C2)no1	-10.2
